AID923 – qHTS Assay for Allosteric/Competitive Inhibitors of Caspase-1: Spectroscopic Profiling in AFC Spectral Region | AID 923, 2007 | 1.1% of 75,000 active | Potency, µM (top dose mostly 57.5 µM), for inactives: top-dose fluorescence increase, most hits filed as activators | compound fluorescence, AFC spectral region (405/520 nm); almost no hit is shown here; active = well fitted activation curve with a large enough effect; inconclusive = small, poorly fitted or top-dose-only effect;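 also: potency is read from the fitted curve at half-maximal effect; 0% is about no effect; scaled to a free AFC standard on each plate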
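Baseline compound fluorescence (AFC region, 405 nm ex/520 nm em) taken from the intercept of kinetic reads with 50 nM caspase-1 and 5 uM Ac-WEHD-AFC; normalized to an on-plate AFC standard curve; compounds titrated up to 57 uM.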
A647 autofl – compound fluoresces in the A647 spectral region | Compound fluorescence, A647 channel (570/671 nm), Tris buffer | max dye-equivalent concentration, M | 59,000 tested, under 10 active | AID 592; active means above 1 µM dye equivalent; inconclusive means 0.1 to 1 µM; inactive means 0.1 µM or less;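 also: values scaled relative to a standard on each plate; highest value over a series up to 38 µM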
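Fluorescence read (570 nm ex, 671 nm em) after 15 min RT incubation of compounds in 100 mM Tris buffer, pH 8.0; values expressed as dye-equivalent concentration against a six-point A647 standard series on each plate.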
A488 autofl – compound fluoresces in the A488 spectral region. max dye equivalency, M. 0.1% of 59,000 active. AID 591. compound autofluorescence, A488 spectral region, dye equivalency; active compounds read high; active = above 10 nM dye equivalent; inconclusive = 1 to 10 nM; inactive = 1 nM or less; about half of its hits are not listed in these tables;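 also: highest value over a series up to 38 µM; compound alone in buffer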
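Autofluorescence read at ex 480/em 540 nm after 15 min RT in 100 mM Tris pH 8.0; compound signal normalized to A488 standard series on each plate, reported as dye-equivalent concentration at each test concentration.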
TSHR ag – agonists of human thyroid stimulating hormone receptor. HEK293-CNG-TSHR cells (CNG channel as cAMP sensor), membrane potential dye, cAMP. P16473. AID 926. Potency, µM (highest dose often 57.1 µM), inactives show at the highest dose activation, hits mostly activators. 0.48% of 73,000 active; active = well fitted activation curve of enough size with the parental cells flat; inconclusive = any curve in the parental cells; inactive = parental cells flat and receptor cells flat or falling; also: potency is read from the fitted curve at half-maximal effect; % of control where 0% means no effect; weak receptor curves with flat parental cells got no call and are not listed
Target sequence (P16473 whole entry, looked up): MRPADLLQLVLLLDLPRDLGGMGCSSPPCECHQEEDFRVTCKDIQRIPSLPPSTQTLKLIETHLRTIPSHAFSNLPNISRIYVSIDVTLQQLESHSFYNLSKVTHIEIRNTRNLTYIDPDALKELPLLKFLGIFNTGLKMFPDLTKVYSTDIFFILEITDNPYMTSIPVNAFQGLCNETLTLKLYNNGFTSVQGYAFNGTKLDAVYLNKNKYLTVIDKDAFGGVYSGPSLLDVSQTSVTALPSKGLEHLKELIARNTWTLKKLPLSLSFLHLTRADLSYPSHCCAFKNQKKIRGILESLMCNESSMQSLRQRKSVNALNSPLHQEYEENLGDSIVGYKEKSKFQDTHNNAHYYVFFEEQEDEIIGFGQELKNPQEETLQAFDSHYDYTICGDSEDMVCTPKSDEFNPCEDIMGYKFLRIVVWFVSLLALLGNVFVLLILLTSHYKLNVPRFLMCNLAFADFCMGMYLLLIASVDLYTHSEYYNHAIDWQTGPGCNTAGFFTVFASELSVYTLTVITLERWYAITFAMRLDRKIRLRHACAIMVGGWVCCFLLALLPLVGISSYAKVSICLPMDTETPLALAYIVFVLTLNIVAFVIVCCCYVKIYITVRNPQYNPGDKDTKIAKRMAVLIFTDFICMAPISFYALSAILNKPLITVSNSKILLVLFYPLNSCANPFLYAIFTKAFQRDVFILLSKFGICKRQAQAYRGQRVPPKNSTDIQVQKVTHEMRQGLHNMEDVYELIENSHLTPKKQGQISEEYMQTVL
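HEK 293 cells stably expressing TSHR and a modified CNG channel, with CNG-only parental cells as counterscreen, were preloaded 60 min at room temperature with membrane potential dye containing 100 uM RO 20-1724. Compound exposure was 30 min, and depolarization was read as fluorescence at 590 nm.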
Resorufin autofl – compounds fluorescent in resorufin spectral region | Compound fluorescence, resorufin region 547/598 nm, buffer; active compounds read high | max dye-equivalent concentration, M | 0.04% of 59,000 active; active = above 10 nM dye equivalent; inconclusive = 1 to 10 nM; inactive = 1 nM or less; a few of its hits are not listed in these tables; also: highest value over a series up to 38 µM
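Read-out: intrinsic compound fluorescence at ex 547/em 598 nm after 15 min at RT in pH 8.0 Tris (100 mM). Values expressed as resorufin-equivalent concentration from per-plate standard series.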
The depositor's hits bear a star; i = inactive; ? = inconclusive; / = not tested or not shown; & = joins results of further samples; [ ] = remark or other dose. These rows are one share of the data. The share of hits here may be higher or lower than overall.

SMILES	AID923	A647 autofl	A488 autofl	TSHR ag	Resorufin autofl
CCN(CC)CCNc1ccnc2cc(Cl)ccc12	0.1%	1e-09	i	-5%	i
CN1CCN(S(=O)(=O)c2ccc(-c3ccccc3)cc2)CC1	-2.8%	3.1e-09	i	/	i
COc1ccccc1N/C(=N/c1nc(C)cc(C)n1)NC(C)=O	0.3%	/	/	4%	/
CCCSc1nnc(Sc2nnnn2-c2ccccc2)s1	-1.4%	1e-08	i	17%	i
COC(=O)N1CC(C)N(C(=O)OC)CC1C (stereo not drawn)	0.3%	/	/	?	/
Cc1nc(SCC(=O)NCC2CCCO2)c2oc3ccccc3c2n1 (stereo not drawn)	-2.1%	2.4e-08	i	23%	i
O=C(Nn1cnnc1)c1cc2cc(Br)ccc2oc1=O	1.7%	3.8e-09	i	?	i
O=C(NCCC1=CCCCC1)C1CCN(S(=O)(=O)c2cccs2)CC1	-0.2%	8.7e-09	i	7%	i
C=CCn1c(SCC(=O)N(CC)CC)nc(O)cc1=O	-0.1%	/	/	0%[11.4 µM]	/
Cc1cc(C)cc(NC(=O)CSc2nnc(CNC(=O)c3cccs3)o2)c1	-0.5%	1.3e-08	i	3%[11.4 µM]	i
O=C(NC1CCN(Cc2ccccc2)C1)c1ccc(Cc2nc3ccccc3[nH]2)cc1 (stereo not drawn)	5.9%	/	/	2%	/
O=C(CN1CCOCC1)N1CCN(c2nnc(-c3ccccc3)c3ccccc23)CC1	-0.5%	1e-09	i	-3%	i
COc1ccc(OC)c(S(=O)(=O)NCc2cn3ccsc3n2)c1	1.1%	2.4e-08	i	7%[11.4 µM]	i
COc1ccc(CN(C2CCCC2)S(=O)(=O)c2ccc(-n3cnnn3)cc2)cc1	0.6%	1.6e-08	i	?	i
CSc1nnc2c3ccccc3n(CCc3ccccc3)c2n1	0.9%	/	/	?	/
CCN(CCNC(=O)C1CCN(S(=O)(=O)c2cccc3nsnc23)CC1)c1ccccc1	0.5%	6.6e-09	i	-6%	i
C[C@H]1C[C@H]2[C@@H]3CCC4=CC(=O)C=C[C@]4(C)[C@@]3(Cl)[C@@H](O)C[C@]2(C)[C@@]1(O)C(=O)CO	/	1e-09	i	/	i
CCOC(=O)O[C@@H](C)OC(=O)[C@@H]1N2C(=O)[C@@H](NC(=O)[C@@H](N)c3ccccc3)[C@H]2SC1(C)C	-2.2%[25.7 µM]	3.9e-09	i	?	i
COC(=O)C1CCCN1C(=O)c1cccs1 (stereo not drawn)	1.0%	2.1e-09	i	-5%	i
NS(=O)(=O)c1ccc(NCc2cnc3ccccc3n2)cc1	3.9%[11.5 µM]	4.2e-09	i	-1%[11.4 µM]	i
O=C(Nc1cccnc1)c1cc2nc(C3CC3)cc(C(F)(F)F)n2n1	-0.9%	2.6e-09	i	-8%	i
O=c1cc(-c2ccccc2)oc2cc(O)c(O)c(O)c12	-5.5%	6.3e-09	i	-11%&-8%	i
COc1ccc(-c2nc(CS(=O)CC(=O)N3CCc4ccccc4C3)c(C)o2)cc1 (stereo not drawn)	5.4%	/	/	8%	/
O=C(CCNS(=O)(=O)c1ccc(Br)s1)NC1CCCC1	0.8%	1e-09	i	-3%	i
COc1ccc(C)cc1NC(=O)CN(c1ccccc1)S(C)(=O)=O	0.4%	/	/	9%	/
CC(=O)C1=C(N2CCCCC2)CCC1=O	2.6%	/	/	6%	/
Cc1ccc(CN2CCN(C(=O)C3CCCO3)CC2)cc1 (stereo not drawn)	-0.4%	1.5e-08	i	?	i
O=c1c(CCc2ccccc2)nc2cnc(N3CCOCC3)nc2n1CCc1ccccc1	1.6%	1e-09	i	-1%	i
COc1cccc(-n2nnc3c(=O)n(CC(=O)NCC4CCCO4)cnc32)c1 (stereo not drawn)	3.2%	/	/	?	/
Cc1cccc(CNc2ncnc3ccc(-c4ccoc4)cc23)c1	2.0%	1.2e-08	i	?	i
CCOc1ccc(-n2cc(C(=O)N3CCCCCC3)c3cc(OC)c(OC)cc3c2=O)cc1	-0.9%	1e-09	i	6%	i
COc1ccc(CNC(=O)C2CC(=O)N(c3ccc(OCC(=O)N4C(C)CCCC4C)cc3)C2)cc1 (stereo not drawn)	0.0%	6.8e-08	i	1%	i
O=C(c1cccc(F)c1)N1CCC2(CC1)CCN(c1ccccc1)CC2	-0.1%	1.1e-09	i	16%	i
COc1cccc(C2C(C#N)=C(N)OC3=C2C(=O)CC(c2ccco2)C3)c1OCc1ccc(F)cc1 (stereo not drawn)	2.2%	1e-09	i	8%[11.4 µM]	i
Cc1ccc(N2CCn3c2nc2c3c(=O)n(CCc3ccccc3)c(=O)n2C)cc1	0.2%	2.7e-08	i	-15%	i
COCCn1c(=O)c(C)nc2cncnc21	8.9%	8.8e-09	i	10%	i
CCOc1cc(N2CCOCC2)c(OCC)cc1NC(=O)COC(=O)CCc1c[nH]c2ccccc12	-0.9%	1e-09	i	-12%	i
CCC(NS(=O)(=O)c1ccc(C)cc1)C(=O)Nc1ccc(NC(C)=O)cc1 (stereo not drawn)	-0.3%	5.6e-09	i	-2%	i
CCN1CCCC1Cn1c(-c2ccccc2)nc2c(NC3CCCCC3)nc(C)nc21 (stereo not drawn)	-0.3%	/	/	?	/
C/C(CC1(O)C(=O)N(C)c2ccccc21)=N\O (stereo not drawn)	1.3%	1.8e-08	i	-3%	i

Some entries already given, limited to TSHR ag:
SMILES,TSHR ag
COC(=O)N1CC(C)N(C(=O)OC)CC1C (stereo not drawn),?
Cc1nc(SCC(=O)NCC2CCCO2)c2oc3ccccc3c2n1 (stereo not drawn),23%
O=C(Nn1cnnc1)c1cc2cc(Br)ccc2oc1=O,?
O=C(NCCC1=CCCCC1)C1CCN(S(=O)(=O)c2cccs2)CC1,7%
C=CCn1c(SCC(=O)N(CC)CC)nc(O)cc1=O,0%[11.4 µM]

The listing continues.
SMILES	AID923	A647 autofl	A488 autofl	TSHR ag	Resorufin autofl
N#CC1=C(SCC(=O)NC2CC2)NC(=O)C(C#N)C12CCCCC2 (stereo not drawn)	-2.0%	3.8e-08	i	1%	i
CCCCNC(=O)OCCNC(=O)NC	0.9%	3e-09	i	-1%	i
Nc1c2c(nc3ccn(Cc4ccccc4)c(=O)c13)CCC2	-0.7%	8.4e-09	i	-1%	i
O=C(COC(=O)CCCc1c[nH]c2ccccc12)Nc1ccc2c(c1)OCO2	-1.6%	5.1e-08	i	24%	i
CCOc1cc(NC(=O)c2ccco2)c(OCC)cc1NC(=O)Cc1cccc(OC)c1	2.4%	3.2e-08	i	3%	i
COc1ccc2c(c1)CCc1c(C(=O)NCCCn3ccnc3)noc1-2	0.6%	4.6e-08	i	/	i
COc1cc(CN2CCN(S(=O)(=O)c3ccc(F)cc3)CC2)cc(OC)c1OC	0.6%	1e-09	i	5%	i
N#Cc1c2c(c(-c3ccco3)[nH]c1=O)CCCC2	/	6.5e-08	i	/	i
Nc1nc2nccc(-c3ccc(Cl)cc3)n2n1	-2.4%	6.6e-09	i	-8%	i
C=C(C)CSc1nnc2n(C)c(=O)c3c4c(sc3n12)CCC4	/	1e-09	i	/	i
CCCN(CCC)c1ncnc2c1cnn2-c1ccc(OC)cc1	0.2%	1.7e-08	i	10%	i
CCOC(=O)Cc1csc(NC(=O)CSc2ncnc3c2cnn3-c2ccc(OC)cc2)n1	4.1%	2.9e-08	i	?	i
O=C(CSc1nnc(-c2ccccc2)o1)NC1CCCCC1	-0.3%	2.4e-09	i	2%	i
Cc1ccccc1Cn1c(=O)c2c(nc3n2CCN3Cc2ccco2)n(C)c1=O	-0.6%	1.6e-08	i	2%	i
Cc1cccc(N2CCN(CC(=O)NCC3CCCCC3)CC2)c1C	1.4%	5.9e-08	i	?	i
CCOC(=O)C1CCCN(C(=O)c2ccc(CS(=O)(=O)c3ccc(Br)cc3)o2)C1 (stereo not drawn)	-2.4%	/	/	16%	/
CCCC(=O)N(Cc1cc2cccc(C)c2[nH]c1=O)c1ccccc1OC	1.4%	4.1e-08	i	?	i
O=C(Nc1cccc(F)c1)N1CC[C@@]2(CCCN(C(=O)c3cccc(F)c3)C2)C1	1.2%	1e-08	i	?	i
COc1cc(CNC(=O)CCCC/C=C/C(C)C)ccc1O	4.2%	/	/	5%	/
CC(NC(=O)Nc1ccccc1O)(C(F)(F)F)C(F)(F)F	0.3%	2.8e-08	i	-6%	i
CC(C)CCSc1nc2c(c(=O)[nH]c(=O)n2C)n1CCCc1ccccc1	0.6%	/	/	12%	/
Cc1cnc(C(=O)Nc2nnc(C)s2)cn1	-0.6%	3.5e-09	i	-3%	i
CC(NS(=O)(=O)c1ccccc1)C(c1cccs1)N1CCN(C)CC1 (stereo not drawn)	-0.2%	2.2e-08	i	8%	i
CS(=O)(=O)N(CC(=O)NCC1CCCO1)c1ccc(Cl)c(Cl)c1 (stereo not drawn)	0.7%	/	/	0%[11.4 µM]	/
O=C(CN1CCOCC1)NCc1ccccc1	-1.9%	5.4e-09	i	4%	i
Cn1c(=O)c2c(nc(CN3CCN(c4ccccc4)CC3)n2Cc2ccccc2F)n(C)c1=O	-0.4%	3.1e-08	i	17%[11.4 µM]	i
CN(C)c1cccc(C(=O)NCC2CCCO2)c1 (stereo not drawn)	-0.5%	/	/	?	/
CCn1cc(C(=O)NC2CCCCC2C)c(=O)c2ccc(C)nc21 (stereo not drawn)	-0.6%	1e-09	i	?	i
COC(=O)CSc1nnc(SCc2ccc(OC)cc2)s1	1.8%	6.8e-09	i	0%	i
CCOC(=O)C1=C(N)Oc2cc(O)ccc2C1c1cccnc1 (stereo not drawn)	1.3%	1e-09	i	?	i
CCCn1c(SCC(=O)N2CCc3ccccc32)nnc1-c1ccncc1	1.9%	3e-08	i	7%	i
CCC(C)NC(=O)CSc1nc2ccc(N3CCOCC3)cc2c(=O)n1CCc1ccccc1 (stereo not drawn)	2.9%	2.6e-08	i	?	i
COc1ccc(NC(=O)CSC2CCCCC2)cc1	1.6%	3.3e-08	i	7%	i
Cc1cc(C)n2c(Br)c(CSc3nc4ccccc4o3)nc2n1	1.1%	3.8e-08	i	/	i
CCOC(=O)c1nnn(-c2nonc2-c2ccccc2)c1C	-2.0%	1e-09	i	13%	i
COc1cc(SC)ccc1C(=O)NC1CCCCC1	-3.5%	/	/	-3%[11.4 µM]	/
COc1ccc(C(=O)Cn2nnc(-c3ccc(N4CCOCC4)cc3)n2)cc1OC	-0.2%	4.5e-09	i	1%	i
Cc1c(NC(=O)CSc2nnc(-c3cccc(Cl)c3)o2)c(=O)n(-c2ccccc2)n1C	0.6%	1e-09	i	22%	i
COC(=O)[C@@]1(Cc2ccc(OC)cc2)[C@H]2c3cc(C(=O)N4CCCC4)n(Cc4cc(F)c(F)c(F)c4)c3C[C@H]2CN1C(=O)c1ccccc1	1.9%	/	/	?	/
COc1ccc(CC(=O)Nc2c3c(nn2-c2cccc(C)c2C)CS(=O)C3)cc1OC (stereo not drawn)	0.8%	1.9e-09	i	?	i
COc1ccc(-c2nnc3ccc(SCC(=O)NCc4ccco4)nn23)cc1	-0.6%	1.4e-09	i	-3%[11.4 µM]	i
O=C(c1c(F)cccc1F)N1CCN(c2cccc(C(F)(F)F)c2)CC1	0.9%	/	/	?	/
O=C(Nc1ccccn1)c1ccc(=O)[nH]n1	/	1e-09	i	/	i

Arranged by value in A647 autofl (lowest first): some entries from above.
molecule,A647 autofl,Resorufin autofl
O=C(Nc1ccccn1)c1ccc(=O)[nH]n1,1e-09,i
COc1ccc(C(=O)Cn2nnc(-c3ccc(N4CCOCC4)cc3)n2)cc1OC,4.5e-09,i
Cn1c(=O)c2c(nc(CN3CCN(c4ccccc4)CC3)n2Cc2ccccc2F)n(C)c1=O,3.1e-08,i
COc1ccc(NC(=O)CSC2CCCCC2)cc1,3.3e-08,i
